# VACV Venus inh = inhibitors of vaccinia virus (Venus reporter); 330,000 tested, 0.46% active; Potency, µM (top dose mostly 36.5 µM), inactives show at the top dose activity change, negative = inhibition, usual class: inhibitors; Vaccinia virus Venus reporter expression, fluorescence; active means well fitted inhibition curve with a large enough effect; inconclusive means small, poorly fitted or top-dose-only effect; inactive means no such curve, though single readings can be large or run the other way; tested in A549 cells; note: nearly all actives have a fitted effect of over 30% in size; inactives centre near -10
# Vaccinia mCherry = inhibitors of vaccinia virus infection (mCherry reporter signal); Vaccinia virus mCherry reporter infection, fluorescence; about a quarter of the inactives have no number; Potency, µM (series often up to 36.5 µM), inactives show at the top dose activity change, negative = inhibition, hits mostly inhibitors; 310,000 tested, 0.63% active; active = well fitted inhibition curve with a large enough effect; inconclusive = small, poorly fitted or top-dose-only effect; inactive = no such curve, though single readings can be large or run the other way; tested in A549 cells; note: nearly all actives have a fitted effect of over 35% in size; inactives centre near -10
# Numbers without * were called inactive; i = inactive; ? = inconclusive; · = not tested or not shown; & = joins results of further samples; [ ] = another dose, or the depositor's remark. % is set by controls: 0 for no effect and ±100 for the full control effect; potency is the fitted concentration of half-maximal effect.
# Sequence of screens: VACV Venus inh, Vaccinia mCherry
Cc1ccc(N(Cc2ccccc2)C(=O)c2ccc(Cl)c(S(=O)(=O)N3CCOCC3)c2)cc1
  -18%, -12%
O=c1cc(CN2CCN(c3ccccc3F)CC2)c2ccccc2o1
  -2%, -9%
CC(=O)Nc1ccc(S(=O)(=O)N2CCN(c3cnn(C)c(=O)c3Cl)CC2)cc1
  -13%, -2%
CC(C)Cc1cc(C(=O)NCc2ccc(Cl)cc2)no1
  2%, -10%
O=C1N/C(=N\N=C\c2cccs2)SC1Cc1cccc(Cl)c1Cl (stereo not given)
  -24%, i
COc1ccc(OC)c(CN2CCN(S(=O)(=O)c3ccc(NC(C)=O)cc3)CC2)c1
  -11%, 4%
COc1ccc(N(Cc2cccs2)C(=O)COc2cccc(C)c2C)cc1
  -7%, -12%
COC(=O)c1cc(S(=O)(=O)N(C)C2CCCCC2)oc1C
  -2%, -11%
O=C(CCc1c[nH]c2ccccc12)N1CCN(c2ccc(O)cc2)CC1
  ?, ?
CCC(CC)C(=O)Nc1cc(-c2nc3cccnc3s2)ccc1C
  -1%, -8%
Cc1cnc(C(=O)OCC(=O)Nc2ccc(Cl)cn2)cn1
  3%, -13%
CCOC(=O)c1c(Nc2cccc(C)c2)nnc(-c2ccccc2)c1-c1ccccc1
  -8%, -4%
COC(=O)N1C(=O)[C@](c2ccsc2)(C(C)C)N1C(=O)OC
  ?, ?
CC(NC(=O)CCc1nnc(-c2ccc(-c3ccccc3)cc2)o1)c1nc2ccccc2[nH]1 (stereo not given)
  -13%, -16%
CC(=O)Nc1ccc(NC(=O)CSc2nnc(NC(=O)c3ccccc3F)s2)cc1
  -3%, i
O=C(CSc1nc(O)cc(=O)n1C1CCCC1)Nc1cccc(Cl)c1Cl
  -7%, -21%
Cc1ccc(C(=O)N/C(=C/c2ccc(-c3cccc([N+](=O)[O-])c3)o2)C(=O)NCCCN(C)C)cc1
  -16%, -22%
CCOc1ccc(-c2c(C(=O)N/N=C(\C)c3ccco3)nnn2-c2nonc2N)cc1
  -10%[7.34 µM], -12%[7.34 µM]
Cc1ccc(-n2nc(C)c3nc(CCC(=O)Nc4cccc(F)c4)c(=O)n(C)c32)cc1
  -5%, -13%
NC(=Nc1c([N+](=O)[O-])cnc2ccccc12)N1CCOCC1
  3%, 38%[activator]
Nc1ccc(-n2ccnc2)cc1
  10%, ·
O=C(COC(=O)c1ccc(F)c(S(=O)(=O)N2CCOCC2)c1)NCc1ccccc1
  -11%, i
O=C(c1ccccc1F)N1CCN(Cc2ccccc2F)CC1
  11%, -1%
Cc1cc(C)cc(N2Cc3ccccc3C2)c1
  -7%, 13%
Cc1ccc(C)c(Nc2nn3c(=O)c4ccc(C(=O)NC5CCCCC5)cc4nc3s2)c1
  -16%, -21%
COc1ccc(CCn2cc(C#N)c(=O)[nH]c2=O)cc1OC
  -4%, -1%
COc1ccc(NC(=O)N(C)C[C@@H]2OCc3cn(nn3)CCCC(=O)N([C@H](C)CO)C[C@H]2C)cc1
  -14%, -2%
CC1(C)CC(=O)C(C#N)=C(NCCCO)C1
  -6%, -11%
COc1cccc(/C=N/c2nc3ccccc3n2C)c1O
  -5%, -9%
N#CCCn1cc(C(=O)Nc2ccc(C(=O)O)cc2)c(-c2ccc([N+](=O)[O-])cc2)n1
  -13%, -9%

# Arranged by formula weight (descending): part of the list above
# Sequence of screens: VACV Venus inh, Vaccinia mCherry
COc1ccc(NC(=O)N(C)C[C@@H]2OCc3cn(nn3)CCCC(=O)N([C@H](C)CO)C[C@H]2C)cc1
  -14%, -2%
COc1ccc(OC)c(CN2CCN(S(=O)(=O)c3ccc(NC(C)=O)cc3)CC2)c1
  -11%, 4%
CC(=O)Nc1ccc(S(=O)(=O)N2CCN(c3cnn(C)c(=O)c3Cl)CC2)cc1
  -13%, -2%
CCOC(=O)c1c(Nc2cccc(C)c2)nnc(-c2ccccc2)c1-c1ccccc1
  -8%, -4%
N#CCCn1cc(C(=O)Nc2ccc(C(=O)O)cc2)c(-c2ccc([N+](=O)[O-])cc2)n1
  -13%, -9%
NC(=Nc1c([N+](=O)[O-])cnc2ccccc12)N1CCOCC1
  3%, 38%[activator]

# Further results.
# Sequence of screens: VACV Venus inh, Vaccinia mCherry
O=C(CSc1nc(=O)n(Cc2ccccn2)c2c1CCC2)Nc1ccc(F)cc1F
  -11%, i
O=C(/C=C/[C@H]1O[C@@H](n2cnc3c(NC(=O)c4ccccc4)ncnc32)[C@H](O)[C@@H]1O)NCC1CCCO1 (stereo not given in full)
  2%, 10%
Cc1cc(F)ccc1S(=O)(=O)N1CCCCC1CCNC(=O)C(=O)NCc1ccccn1 (stereo not given)
  -20%, -11%
COc1ccc(N(C)S(=O)(=O)c2ccc(Cl)c(C(=O)NCCc3ccc(Cl)cc3)c2)cc1
  -21%, -8%
NC(=O)C1CCN(C(=O)COc2ccc3c4c(c(=O)oc3c2)CCCC4)CC1
  2%, 3%
O=C(CN1C(=O)c2cccc3cccc1c23)Nc1ccc(S(=O)(=O)N2CCOCC2)cc1
  ?, ·
Cc1ccc(SC[C@H](c2ccccc2)N2CCN(CC(C)C)CCC2=O)cc1
  -11%, -6%
C=CCn1c(SCC(=O)NCc2ccc3c(c2)OCO3)nc2scc(-c3ccccc3)c2c1=O
  -24%, -4%
C#CCOCCOCCOCCNc1nc(N2CCN(C(=O)[C@H](CCCCN)n3cc(CN)nn3)CC2)nc(N2CCN(C(=O)[C@H](CCCCN)n3cc([C@@H](N)[C@H](C)CC)nn3)CC2)n1
  4%, i
Cc1cc(/C=C(\C#N)C(=O)NCc2ccco2)c(C)n1-c1ccc(C(=O)O)cc1
  0%, i
COc1cccc(NC(=O)c2oc3ccccc3c2NC(=O)C2CCCCC2)c1
  -8%, -11%
CC(CC(C#N)(c1ccccc1)c1ccccc1)N1CCOCC1 (stereo not given)
  -6%, -6%
CC1(C(=O)NS(=O)(=O)C2CC2)CCN(C(=O)COCc2ccccc2)C1 (stereo not given)
  2%, 2%
N#Cc1nc(-c2cccs2)oc1NCC1CCCO1 (stereo not given)
  -13%, -13%
CC(=O)N1C[C@H]2CON(C)[C@H]2C[C@H]1c1cccc(-c2ccccc2C)c1
  -14%, i
COc1ccc(NC(=S)N(CCCN2CCOCC2)Cc2ccco2)cc1
  -2%, -1%
CCC(c1ccccc1)c1noc(CCN(CC)CC)n1 (stereo not given)
  -10%, i
COC(=O)COc1ccc(-c2nnc(Nc3ccc(O)cc3)c3ccccc23)cc1
  -3%, -14%
O=C(Cn1ncc2c3ccccc3n(Cc3ccccc3)c2c1=O)NCCc1ccc(Cl)cc1
  ?, ?
O=C(C[C@H]1C(=O)N(Cc2cccnc2)C[C@@H]1Cc1ccccc1)Nc1ccccc1
  -10%, -15%
S=C(NCc1ccco1)Nc1ccc(Cl)c(Cl)c1
  ?, -22%
CCN(CC)S(=O)(=O)c1ccc2oc(C(=O)NCCN3CCOCC3)c(C)c2c1
  -5%, -14%
O=c1c(O)c(-c2ccc(O)cc2)oc2ccccc12
  -11%, -15%
NC(=O)Nc1ccc(C(=O)OCC(=O)NC2CCCc3ccccc32)cc1 (stereo not given)
  -8%, -1%
Cc1ccc2c(Cl)cc(Cl)c(OCC(=O)Nc3cc(S(=O)(=O)N(C)C)ccc3C)c2n1
  -28%, -19%
O=C1CCCC2=C1C(c1ccc(O)cc1)c1c(ccc3ccccc13)N2 (stereo not given)
  -21%, ?
CC(Sc1nnc(-c2ccccc2F)n1N)C(=O)NCC1CCCO1 (stereo not given)
  -10%, -13%
CN1C(=O)N(C)C(=O)C2(Cc3cc([N+](=O)[O-])ccc3N(C)C2c2ccccc2)C1=O (stereo not given)
  -16%, i
Cc1cc(=O)oc2cc(OCC(=O)N/N=C/c3cc([N+](=O)[O-])ccc3O)ccc12
  -21%, -15%
Cc1ccc(S(=O)(=O)Nc2ccc3c(c2)c(C(=O)OC(C)C)c(C)n3S(=O)(=O)c2ccc(C)cc2)cc1
  -19%, -22%

# More records
# Sequence of screens: VACV Venus inh, Vaccinia mCherry
COc1ccc(NC(=O)c2ccc(Cc3ccc(C)cc3)o2)cc1
  -18%, -22%
CCCC(=O)Nc1ccc(NC(=S)NC(=O)c2ccccc2[N+](=O)[O-])cc1
  -17%, i
CCCCCn1c(=O)[nH]c2cc(C(=O)Nc3cc(OC)cc(OC)c3)ccc2c1=O
  -6%, -10%
CC1(C(=O)Nc2ccc3c(c2)OCO3)Cc2c(-c3cccc(C(F)(F)F)c3)ccnc2O1 (stereo not given)
  -29%, -6%
O=C(NC(=S)Nc1ccc(-c2ccccc2)cc1)c1ccccc1
  -7%, i
COc1ccccc1Nc1nn2c(=O)c3ccc(C(=O)NCc4ccc(F)cc4)cc3nc2s1
  ?, 13µM*
Cc1ccc2nsnc2c1NC(=O)COc1ccccc1
  -7%, i
CCC(C)NC(=O)C(Cc1ccccc1)n1cccc1 (stereo not given)
  -14%, -10%
C=CCn1cnc2scc(-c3ccc(C)cc3)c2c1=O
  -18%, i
COc1ccc(CC(=O)NCc2ccco2)cc1OC
  -9%, -6%
O=C(CN1CCCCC1)Nc1cc(Cl)ccc1Cl
  -3%, 1%
Cc1ccc(Sc2c(C)nn(C(=O)COc3ccccc3Br)c2C)cc1
  -9%, -17%
CCC(CC)C(=O)Nc1ccc2nc(SCC(=O)N3CCOCC3)sc2c1
  -9%, -7%
O=C(c1ccncc1)N1CCN(S(=O)(=O)c2ccc(OC(F)(F)F)cc2)CC1
  -16%, -18%
CCOC(=O)C1CCN(CCC(=O)Nc2ccccc2OC)CC1
  -18%, -2%
COc1ccc(NCC(O)COc2ccc(C(C)(C)C)cc2)cc1 (stereo not given)
  -20%, -9%
COc1ccc(CN2[C@@H](CC(=O)O)c3cc(F)ccc3S2(=O)=O)cc1
  -21%&-10%, -10%
COC(=O)[C@H](Cc1c[nH]c2ccccc12)NC(=O)Cc1c[nH]c2ccccc12
  -18%, i
O=C(Cc1c(F)cccc1Cl)NCCCn1ccnc1
  -15%, i
Cc1c(C)c2cc(Cl)c(OCC(=O)NCCCN3CCCC3=O)cc2oc1=O
  -9%, i
Cc1cc([N+](=O)[O-])nn1CC(=O)NCc1nc2ccccc2[nH]1
  -4%, -2%
CC1Cc2ccccc2N1C(=O)CCNS(=O)(=O)c1cccc2nsnc12 (stereo not given)
  -10%, ·
Cc1ccc(NC(=O)c2sc(=S)n(-c3cc(C)ccc3F)c2N)cc1
  -7%, -7%
CCCCN(C=O)c1c(CC)nc2ccc(C(=O)NCc3ccc4c(c3)OCO4)cn12
  -5%, 9%
O=C(Cn1nc(-c2nn(CC(=O)c3ccccc3)c3[n+]2CCCCC3)[n+]2c1CCCCC2)c1ccccc1
  0%[7.34 µM], i[7.34 µM]
CCC1CN(C(=O)N2CCC(C(=O)NCCc3ccccc3C)CC2)c2ccccc2O1 (stereo not given)
  -7%, -2%
CSc1nn2cc(CCN3CCOCC3)c(-c3ccc(F)cc3)nc2c1C#N
  -2%, -6%
Cc1cccc(NC(=O)C(CC(C)C)NC(=O)C2CCC(C)CC2)n1 (stereo not given)
  -8%, -7%
CC(C)C[C@H](NC(=O)N1c2ccccc2NC(=O)[C@@H]1C(C)C)C(=O)N1CCC[C@@H]1C(=O)O
  4%, -4%
CN(C)CCn1cnc2c1c(=O)[nH]c(=O)n2Cc1ccccc1
  -1%, -10%

# 2 entries picked at random from the list so far:
# Sequence of screens: VACV Venus inh, Vaccinia mCherry
CSc1nn2cc(CCN3CCOCC3)c(-c3ccc(F)cc3)nc2c1C#N
  -2%, -6%
C=CCn1cnc2scc(-c3ccc(C)cc3)c2c1=O
  -18%, i

# Entries shown so far containing a CF3 group (2):
# Sequence of screens: VACV Venus inh, Vaccinia mCherry
CC1(C(=O)Nc2ccc3c(c2)OCO3)Cc2c(-c3cccc(C(F)(F)F)c3)ccnc2O1 (stereo not given)
  -29%, -6%
O=C(c1ccncc1)N1CCN(S(=O)(=O)c2ccc(OC(F)(F)F)cc2)CC1
  -16%, -18%

# Further records follow:
# Sequence of screens: VACV Venus inh, Vaccinia mCherry
N#CC1=C(Nc2ccccc2Cl)SC2(CCCC2)NC1=O
  1%, 16%
COC(=O)c1cc(NC(=O)c2ccccc2)c(=O)oc1C/C=N\OCc1ccc(Cl)cc1Cl
  5%, ·
O=C(CCl)N(CCCNC(=O)C(F)(F)F)c1ccc([N+](=O)[O-])cc1
  -9%[7.34 µM], i[7.34 µM]
C/C(=N/NS(=O)(=O)c1ccc(Cl)cc1)c1cccc(NC(=O)c2ccc(Cl)cc2Cl)c1
  -8%, i
COc1cc(NC(=O)CSc2nc(C)c(C)c(C)n2)c(C)cc1[N+](=O)[O-]
  -16%, i
O=C(NNC(=S)Nc1cccc(C(F)(F)F)c1)c1ccccc1Cl
  -21%, -17%
Cc1nc(NC(=O)C(Cl)Cl)sc1C(=O)N(C)C
  -10%, i
O=C1NC[C@@H](CCCCN2CCN(CCc3ccccc3)C(=O)C2=O)N(CCc2ccc(O)cc2)C1=O
  -1%, -10%
Cc1cc2ncn(CS(C)(=O)=O)c2cc1C
  1%, -3%
Cc1ccsc1C(=O)N1CCC1(C)C(=O)NS(=O)(=O)c1ccc(Br)cc1 (stereo not given)
  -4%, 2%
COc1ccc(-c2noc(CCC(=O)Nc3cccc(C)c3)n2)cc1
  -11%, -17%
Cc1ccc(-c2noc(CCC(=O)NCCc3ccccc3Cl)n2)cc1
  -12%, ·
Cc1ccc(CN2CCN(/N=C/c3ccc(C(F)(F)F)cc3)CC2)c(C)c1
  -13%, -3%

# Screens: PubChem, National Center for Advancing Translational Sciences (NCATS)
